eIF4H FP inh: inhibitors of RNA binding by human eIF4H; inhibition, % at 35 µM; 290,000 tested, 0.94% active; Q15056; eIF4H fluorescence polarization binding assay;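 active = 50% or more with normal probe brightness, or confirmed in later tests; about a fifth of its hits are not listed in these tables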;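 note: calls also rest on retests at 20 µM and on dose response follow-up; 0% = protein and probe with vehicle and 100% = probe without protein; strong numbers were not always called active; many hits fall short of the cut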
PABP polyA inh: blocks human PABP binding to poly(A) RNA; fluorescence polarization; inhibition, % at 35 µM; 290,000 tested, 1% active; AID 2014;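 active = 50% or more with normal probe brightness, or confirmed in later tests; about a fifth of its hits are not listed in these tables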;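 note: calls also rest on retests at 20 µM and on dose response follow-up; controls were probe without protein and protein plus probe with vehicle; some compounds called inactive have numbers as strong as hits; many hits fall short of the cut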
Target sequence (P11940 whole entry, looked up): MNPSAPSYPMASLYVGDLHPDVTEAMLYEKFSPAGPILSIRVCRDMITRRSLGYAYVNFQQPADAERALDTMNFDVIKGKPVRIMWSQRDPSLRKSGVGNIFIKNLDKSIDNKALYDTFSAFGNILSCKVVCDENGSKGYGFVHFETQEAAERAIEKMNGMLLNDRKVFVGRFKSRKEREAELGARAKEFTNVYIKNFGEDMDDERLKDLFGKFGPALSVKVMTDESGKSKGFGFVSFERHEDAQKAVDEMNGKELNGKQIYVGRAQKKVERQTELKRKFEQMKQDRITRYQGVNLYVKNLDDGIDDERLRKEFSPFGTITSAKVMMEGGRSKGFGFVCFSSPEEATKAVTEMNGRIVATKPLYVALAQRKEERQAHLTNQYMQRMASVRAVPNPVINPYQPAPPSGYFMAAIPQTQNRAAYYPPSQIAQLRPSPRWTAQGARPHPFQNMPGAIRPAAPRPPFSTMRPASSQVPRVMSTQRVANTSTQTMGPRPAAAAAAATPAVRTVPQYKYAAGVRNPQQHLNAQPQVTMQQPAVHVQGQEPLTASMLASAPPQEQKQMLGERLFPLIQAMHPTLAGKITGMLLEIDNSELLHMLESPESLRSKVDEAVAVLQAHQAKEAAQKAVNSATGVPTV
UUG fidelity: alters start codon recognition fidelity in yeast. activity score, % at 18.7 µM. AID 602363. 350,000 tested, 0.13% active. S. cerevisiae UUG-firefly luciferase reporter, luminescence/redox ratio;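 active = replicate mean at a twofold rise or more, about +100% in these data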;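 note: firefly luciferase made from a UUG start codon reports start codon fidelity; reporter light over untreated wells divided by growth signal over untreated wells; some hits fall short of that in this replicate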
CSC inhib: cancer stem cell inhibition | cancer stem cell-like cells viability, luminescence | inhibition, % at 7.5 µM | 300,000 tested, 1.1% active | AID 2717;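 active = mean at 75% or more and at least half the replicates too; tested in HMLE shEcad cells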;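 note: 0% = median of negative and 100% = median of positive control wells; the first replicate is given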
Env fusion inh: inhibitors of HIV Env-mediated cell fusion; HeLa-JRFL Env/CEM21 cell fusion, luciferase; inhibition, % at 12.3 µM; 360,000 tested, 1.1% active; AID 651610;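 active = mean replicate inhibition score of at least 50 and every replicate individually at or above 50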;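 note: 0% = plate neutral controls and 100% = maraviroc near 300 nM; one replicate is shown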
MT1-MMP act inh: MT1-MMP (human) activation inhibition | P50281 | HT1080 RFP-PRO-GFP cells, GFP/RFP ratio fluorescence, overnight; percent of plate control window, DMSO zero | GFP/RFP ratio change, % at 20 µM | 360,000 tested, 0.061% active;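 active = GFP/RFP ratio change of at least 30% with cell ATP level not reduced by more than half and red fluorescence within 50% of control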; note: strong numbers were not always called active
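Assay system: HT1080 RFP-PRO-GFP cells | Dosing: 20 µM single dose, 1% DMSO | Incubation: Cells overnight before dosing, compound overnight, 37 °C, 5% CO2 | Evaluation: GFP/RFP fluorescence ratio | Control set: DMSO-only wells and HT1080 RFP-L50D-GFP cell wells as references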
Rce1 inh: yeast Ras-converting enzyme inhibition; 290,000 tested, 0.27% active; yeast membranes, quenched prenylated peptide cleavage fluorescence; AID 2563; calls only; Q03530;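 active = fall in fluorescence gain of 50% or more versus controls, with final raw signal at or below 3038400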;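 note: plate controls were neutral control wells for no effect and wells lacking membranes for full effect; tested at 10 µM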
Target sequence (Q03530 whole entry, looked up): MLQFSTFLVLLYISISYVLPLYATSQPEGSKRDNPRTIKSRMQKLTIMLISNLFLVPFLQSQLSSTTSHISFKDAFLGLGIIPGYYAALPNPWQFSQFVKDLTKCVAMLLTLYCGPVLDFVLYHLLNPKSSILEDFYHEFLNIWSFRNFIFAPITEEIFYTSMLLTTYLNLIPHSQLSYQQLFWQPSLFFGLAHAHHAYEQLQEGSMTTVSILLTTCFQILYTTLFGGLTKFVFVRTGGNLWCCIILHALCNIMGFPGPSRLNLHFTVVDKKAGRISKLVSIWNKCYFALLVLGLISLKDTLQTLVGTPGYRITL
eIF4H FP inh retest: second read-out of eIF4H FP inh, no call of its own (marks repeat the call); inhibition, %; compound at 20 µM; confirmation average;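 mean of two retest wells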
PABP polyA inh retest: further read-out of PABP polyA inh, marked with its call; inhibition, %; compound at 20 µM; confirmation repeats;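 mean of two retest wells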
MT1-MMP act inh RFP: second read-out of MT1-MMP act inh, no call of its own (marks repeat the call); RFP signal change, %; measured here: RFP expression control read;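 0 = vehicle wells; hits needed this value within 50% of zero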
Active calls of the source: *; i = inactive; · = no result given; & = joins results of further samples.

SMILES | eIF4H FP inh | PABP polyA inh | UUG fidelity | CSC inhib | Env fusion inh | MT1-MMP act inh | MT1-MMP act inh RFP | Rce1 inh | others
CN(C)CCNC(=O)COc1cccc2c1OC(C)(C)C2 | -7 | -5 | · | 1 | -11 | 1 | 4 | i
CCn1cc(/C=N\NC(=O)c2csc3ccccc23)c(C)n1 | 8 | 0 | -13 | -2 | -42 | 3 | 2 | i
CCOc1ccc(CC(=O)OCn2nnc3ccccc3c2=O)cc1 | -1 | -6 | -1 | -5 | 3 | 0 | 3 | i
CS(=O)(=O)NNC(=O)c1sccc1OCc1ncc(C(F)(F)F)cc1Cl | -4 | 7 | -9 | -11 | -1 | 4 | -3 | i
CN(C)c1nc(OCCNC(=O)Nc2ccc(Cl)cc2)nc(N(C)C)n1 | 1 | 3 | -15 | 13 | 3 | -1 | -4 | i
c1csc(-n2nc3ccccc3n2)c1 | -2 | -6 | -12 | -14 | · | 1 | 6 | i
Cc1cc(N=Cc2c(O)n(-c3cccc(C(F)(F)F)c3)c(=O)c3ccccc23)no1 | 5 | 12 | -16 | 12 | 10 | -6 | -5 | i
C=CCc1cccc(/C=N/NC(=O)CNc2ccccc2OC)c1O | -1 | -7 | -17 | 34 | -27 | -6 | -9 | i
COCCn1c(SCc2ccc(F)cc2)nc2ccccc2c1=O | 8 | 2 | -9 | 9 | -1 | 1 | 0 | i
Clc1cccc(-c2nc(NCCN3CCOCC3)c3ccccc3n2)c1 | -6 | -9 | 11 | 11 | 11 | 6 | 0 | i
O=C(c1cc(COc2c(F)cccc2F)on1)N1CCc2ccccc2C1 | -1 | 1 | -20 | 3 | 15 | -2 | -4 | i
COc1ccc(-c2csc3ncnc(N4CCN(c5cccc(C)c5C)CC4)c23)cc1 | 1 | -3 | -21 | 31 | -4 | -8 | -4 | i
COc1cc(OC)c2c(C)cc(=O)oc2c1C(CCN1CCOCC1)c1ccc(N(C)C)cc1 (configuration not stated) | -7 | -9 | -13 | -13 | -27 | 8 | -4 | i
CCOC(=O)C1CCCN(S(=O)(=O)c2ccc(OC)cc2)C1 (configuration not stated) | 5 | -13 | 10 | · | -15 | 4 | 2 | i
COc1ccc(CCNC(=O)c2cc(C3CC3)nc3c2cnn3C(C)C)cc1OC | · | · | -16 | -9 | · | 6 | -3 | ·
CC(Oc1ccc(F)cc1)C(=O)Nc1cc(Cl)ccc1-n1cncn1 (configuration not stated) | · | · | 11 | · | · | 5 | 0 | i
CCc1ccc(CCC(=O)Nc2ccc(C)c(C)c2)o1 | 10 | 13 | -4 | -6 | -3 | 8 | 10 | i
Cc1cccc(-n2ncc3c(=O)[nH]c(SCC(=O)Nc4cc(C)on4)nc32)c1 | · | · | · | -7 | 7 | 4 | 0 | ·
CCOC(=O)CN(C(=O)CSc1nnc(-c2ccncc2)n1CCCOC)c1ccccc1 | 60 | -16 | -12 | · | -18 | -3 | -5 | i | eIF4H FP inh retest=28;PABP polyA inh retest=12
O=c1[nH]cnc2c([N+](=O)[O-])cccc12 | -2 | 1 | -9 | 1 | · | -1 | 4 | i
COc1cc(C(=O)Nc2nncs2)cc(OC)c1OC | -13 | -5 | -7 | -15 | -8 | 12 | -1 | i
Cc1cc(F)ccc1S(=O)(=O)N1CCCOC1CNC(=O)C(=O)NCc1ccncc1 (configuration not stated) | -1 | -6 | -7 | 4 | -345 | -2 | 0 | i
CN(C(=O)c1cccc(NC(=O)Cc2ccc(NC(=O)C3CCN(S(=O)(=O)c4cccc([N+](=O)[O-])c4)CC3)cc2)c1)C1CCC1 | · | · | -12 | · | -42 | 3 | -4 | ·
CCc1ccccc1NC(=O)CCC(=O)N1CCN(C(C)=O)CC1 | · | · | 25 | · | -6 | 2 | 2 | ·
CCOC(=O)CSc1cc(C)c(C#N)c2nc3ccccc3n12 | 36 | -1 | · | 10 | 13 | -9 | -2 | i

Four entries picked at random from the list so far:
SMILES | eIF4H FP inh | PABP polyA inh | UUG fidelity | CSC inhib | Env fusion inh | MT1-MMP act inh | MT1-MMP act inh RFP | Rce1 inh | others
O=C(c1cc(COc2c(F)cccc2F)on1)N1CCc2ccccc2C1 | -1 | 1 | -20 | 3 | 15 | -2 | -4 | i
CCOC(=O)CN(C(=O)CSc1nnc(-c2ccncc2)n1CCCOC)c1ccccc1 | 60 | -16 | -12 | · | -18 | -3 | -5 | i | eIF4H FP inh retest=28;PABP polyA inh retest=12
CS(=O)(=O)NNC(=O)c1sccc1OCc1ncc(C(F)(F)F)cc1Cl | -4 | 7 | -9 | -11 | -1 | 4 | -3 | i
Cc1cc(N=Cc2c(O)n(-c3cccc(C(F)(F)F)c3)c(=O)c3ccccc23)no1 | 5 | 12 | -16 | 12 | 10 | -6 | -5 | i

Further compounds
SMILES | eIF4H FP inh | PABP polyA inh | UUG fidelity | CSC inhib | Env fusion inh | MT1-MMP act inh | MT1-MMP act inh RFP | Rce1 inh | others
CN(CC(=O)NCc1ccccc1)S(=O)(=O)c1cnc[nH]1 | -1 | -4 | -12 | -9 | · | -4 | 2 | i
CCc1ccc(OCC(O)CN2CCN(c3ccccc3)CC2)cc1 (configuration not stated) | -4 | 7 | -16 | · | 1&-3 | -1&4 | 2&2 | i
COc1ccc(-c2c[n+](CC(=O)N3c4ccccc4Sc4ccccc43)c3n2CCC3)cc1 | -14 | -12 | · | -14 | 13 | -14 | -27 | i
COc1ccc(N2CCN(C(=O)c3c(-c4ccccc4)noc3C)CC2)cc1 | 7 | 3 | 18 | -2 | 20 | 3 | -4 | i
N#CNC(=Nc1ccc(F)cc1)SCc1ccccc1 | -9 | -19 | · | -18 | 1 | 1 | 1 | i
O=C(CSc1nnc(C2CCCCC2)n1Cc1ccccc1)NCc1ccco1 | -8 | -1 | -12 | 20 | -9 | -7 | -3 | i
c1ccc2sc(C3CCN(Cc4nnnn4Cc4ccc5c(c4)OCO5)CC3)nc2c1 | -1 | 4 | -18 | 23 | -42 | 3 | -7 | i
Cc1nn(C(C)C(=O)NCC2CCCO2)c(=O)c2cc3occc3n12 (configuration not stated) | -8 | -4 | -1 | -10 | · | 2 | 1 | i
CC12CCC3c4ccc(O)c([N+](=O)[O-])c4CCC3C1CCC2=O (configuration not stated) | · | · | 2 | · | 38 | -4 | -8 | ·
COc1cccc(OC)c1-c1nn2c(-c3ccco3)nnc2s1 | 36 | 22 | -33 | -10 | -205 | 5 | 6 | i
COC(=O)CN1C(=O)C(C)(C)Oc2ccc(C(=O)NC3CC3)cc21 | 8 | -12 | -12 | -9 | -21 | 4 | 2 | i
COc1ccc(C(=O)OCC(=O)NC2CC2)cc1[N+](=O)[O-] | -2 | 0 | · | -7 | 27 | -2 | 2 | i
COc1ccc(NC(=O)CNC(c2ccccc2)c2ccccc2)cc1 | -1 | 8 | -11 | -15 | -5 | 2 | -2 | i
CC(C)(C)C(=O)Nc1ncc(C(F)(F)F)cc1Cl | -1 | -3 | -16 | -10 | -49 | 1 | 6 | i
C/C=C(\C)c1nnc(NC(=O)OCC)s1 | -8 | -4 | -11 | 5 | -48 | 0 | 6 | i
CCOc1cc(/C=N/Nc2ccc(S(=O)(=O)Nc3ccccc3C(=O)O)cc2[N+](=O)[O-])cc(Cl)c1O | · | · | -21 | · | -13 | 14 | 4 | ·
NS(=O)(=O)c1ccc(CCNC(=O)c2ccc(Cl)c(S(=O)(=O)NCc3ccco3)c2)cc1 | · | · | -13 | -8 | · | 3 | 2 | ·
Oc1ccccc1CNCC12CC3CC(CC(C3)C1)C2 | -1 | -5 | 3 | 30 | 16 | -6 | -3 | i
O=C(NCc1cccnc1)c1ccccc1-c1ccccc1 | 12 | -10 | · | -4 | -2 | -3 | 1 | i
NC(=O)NC(=O)CSc1cccc(C(F)(F)F)c1 | -5 | 20 | -4 | -4 | · | 2 | 0 | i
CCOc1ccc(Cn2nnc(C(=O)NCc3ccccc3)c2N)cc1 | -2 | 1 | -17 | -8 | 18 | -4 | -6 | i
CC(C)n1cc(CN2CCCC(CNS(=O)(=O)c3cccc4cccnc34)C2)cn1 (configuration not stated) | 2 | -1 | -12 | 1 | 0 | -5 | 1 | i
COC(=O)c1ccc(N2CCOCC2)c(NC(=O)c2ccco2)c1 | -1 | -1 | -3 | 9 | 0 | -10 | -3 | i
O=C(NCc1ccc(F)cc1)Nc1cccc([N+](=O)[O-])c1 | -5 | 1 | · | -1 | 15 | 4 | 0 | i
COc1ccc(-c2cc(NC=O)c3ncc(-c4cccc(C(=O)NCCN(C)C)c4)n3c2)cn1 | · | · | -11 | · | -16 | -1 | -1 | ·

(next part)
SMILES | eIF4H FP inh | PABP polyA inh | UUG fidelity | CSC inhib | Env fusion inh | MT1-MMP act inh | MT1-MMP act inh RFP | Rce1 inh | others
O=c1oc(CCCO)cc2ccccc12 | · | · | 5 | -11 | -2 | 6 | 1 | ·
CCOC(=O)c1csc(NC(=O)CSc2nnnn2-c2ccc(OC)c(OC)c2)n1 | -1 | 0 | 8 | -5 | -11 | -3 | -2 | i
O=C1N(Cc2cccnc2)C[C@@H]2C[C@@H](c3cccc(C(F)(F)F)c3)N3CCC[C@@]123 | -15 | 5 | · | -21 | 23 | 0 | 6 | i
Cc1cccc(NC(=O)C2CC(=O)N(Cc3ccccc3)C2)n1 (configuration not stated) | · | · | -16 | · | · | -1 | 0 | i
CCCCC(=O)Nc1ccc(NC(=O)c2ccc3c(c2)OCO3)cc1OC | 4 | -3 | -25 | · | -21 | 2 | -3 | i
CN(Cc1ccccn1)Cc1nc(-c2ccc(Cl)cc2)no1 | -2 | 5 | -34 | -14 | -18 | -16 | -8 | i
CSC1=N/C(=C\c2ccc(Cl)cc2)C(=O)N1N(C)C | 2 | -12 | -2 | 11 | -4 | -3 | -7 | i
C[C@H](CO)N1C[C@H](C)[C@@H](CN(C)S(=O)(=O)c2ccccc2)Oc2c(NC(=O)CCC(F)(F)F)cccc2C1=O | · | · | -8 | -13 | -10 | 4 | 4 | ·
CCCCC(=O)N(C)c1c(C)nc2ccc(C(=O)N(CC)CCN(C)C)cn12 | · | · | -8 | · | -40 | 1 | 6 | ·
c1ccc(C2CC(c3ccccc3)n3c(nc4ccccc43)N2)cc1 (configuration not stated) | -16 | 15 | · | -17 | -27 | 7 | 5 | i
Cc1cc(Cl)ccc1OC(C)C(=O)Nc1cccc(S(=O)(=O)N2CCOCC2)c1 (configuration not stated) | · | · | -26 | · | 14 | -4 | -7 | ·
COc1ccc(-c2ccc(-c3noc(-c4cccc(OC)c4)n3)c(OC)n2)cc1 | -9 | -10 | -5 | 16 | · | -9 | -3 | i
Cc1ccc(NC(=O)C(Nc2cccc(C)c2)c2ccccc2)cc1 (configuration not stated) | 4 | 3 | · | 25 | -58 | -2 | -3 | i
CCn1c(SCc2cccc(F)c2)nnc1-c1cccnc1 | 48 | -4 | · | -2 | 0 | 4 | 4 | ·
Fc1ccc(-c2ccc3nccn3c2)cc1Cl | · | · | -25 | · | -74 | 3 | -7 | ·
O=C(O)CCN1C(=O)C2C3C=CC(C2C1=O)C1C(=O)N(CCC(=O)O)C(=O)C31 (configuration not stated) | -12 | -3 | -7 | 0 | -3 | -1 | 3 | i
COc1ccc(Nc2cc(C)nc(-n3nc(C)cc3C)n2)cc1 | -8 | 1 | -39 | 64 | -59 | 13 | -7 | i
CC(NC(=O)c1cc(F)c(F)cc1Cl)c1ccncc1 (configuration not stated) | -4 | -6 | -23 | · | -6 | 2 | 3 | i
O=C(OCc1csc(-c2ccccc2)n1)c1cccs1 | -9 | -1 | -49 | · | · | 6 | 6 | i
CCOC(=O)CC(=O)CSc1nc2c(cc1C#N)CCC2 | 22 | 15 | · | 2 | · | 0 | 6 | i
CCC(C)NC(=O)c1ccc2c(Cl)c3c(nc2c1)CCC3 (configuration not stated) | -13 | 2 | -2 | -10 | -121 | 8 | -3 | i
CC(=O)c1ccc(NC(=S)NCCc2cccc(Cl)c2)cc1 | 1 | 4 | · | 4 | -28 | 4 | 1 | i

Screening data (PubChem BioAssay)

An excerpt; count on the stated rates, not on these rows.
